# VDR inh: vitamin D3 receptor (human) inhibition | P11473 | VDR-SRC2-3 peptide fluorescence polarization, 2 h | Potency, µM, for inactives: max response, negative = inhibition, actives largely listed as inhibitors | 400,000 tested, 0.93% active | AID 504847; active means well fitted inhibition curve with a large enough effect; inconclusive means small, poorly fitted or top-dose-only effect, or another doubt; inactive means no such curve, though single readings can be large or run the other way; further: series mostly up to about 120 µM
# Target sequence (P11473 whole entry, looked up): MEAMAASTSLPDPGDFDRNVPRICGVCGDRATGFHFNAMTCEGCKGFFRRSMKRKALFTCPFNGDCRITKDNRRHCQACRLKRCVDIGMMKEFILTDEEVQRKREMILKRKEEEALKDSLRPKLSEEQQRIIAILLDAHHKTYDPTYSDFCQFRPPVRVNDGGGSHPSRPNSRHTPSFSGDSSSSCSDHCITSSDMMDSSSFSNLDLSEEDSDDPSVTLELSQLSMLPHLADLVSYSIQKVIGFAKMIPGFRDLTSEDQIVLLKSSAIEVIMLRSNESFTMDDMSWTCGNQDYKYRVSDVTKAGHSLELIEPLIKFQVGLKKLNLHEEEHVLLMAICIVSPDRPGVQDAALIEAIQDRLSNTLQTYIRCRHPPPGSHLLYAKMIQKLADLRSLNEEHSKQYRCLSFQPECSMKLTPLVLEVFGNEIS
#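 Fluorescence polarization assay of small-molecule disruption of VDR binding to coregulator peptide SRC2-3. Compounds and controls pin-transferred, then read after 2 h incubation at ambient room temperature.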
# Active calls of the source: *; ? = inconclusive; & = joins results of further samples. On the % scale 0 is the no-effect control and ±100 the full control effect; potency means the concentration at half of the fitted maximal effect. Only part of the results is shown. The share of hits here may be higher or lower than overall.
VDR inh | mol
7% | COc1ccc(C(=O)Nc2nc3cc4c(cc3s2)OCCO4)c(OC)c1
16% | CC(/C=C/c1ccc2c(c1)OCO2)=N\NC(=O)C(O)c1ccccc1 (stereo not given)
-8% | O=C(O)C1CCC(C(=O)O)SS1 (stereo not given)
-14% | COc1cc(Cl)cc(/C=C/c2ccc3ccccc3n2)c1OC(C)=O
-1% | Cc1ccccc1-c1noc(CSc2nc(-c3ccc(F)cc3)cc(=O)[nH]2)n1
? | S=C(c1nc2ccccc2[nH]1)N1CCOCC1
9% | CCOc1ccc(OCC)c(NC(=O)CC(C)n2nc(C)cc2C)c1 (stereo not given)
1% | C=CCN1CC2CC3(COc4cc(C)cc(C)c4)C=CC2(O3)C1=O (stereo not given)
-27% | COC(=O)c1ccc2c(=O)n(CCCCCC(=O)O)c(=O)[nH]c2c1
6% | O=C(CN1CCN(c2ccccc2)CC1)Nc1ccccc1Cl
22% | Cc1ccc2nc(NC(=O)CSc3ncc(C(=O)Nc4ccc(F)cc4)c(=O)n3C)sc2c1
-4% | O=C(CC1Sc2ncnn2C1=O)Nc1ccc(Cl)cc1 (stereo not given)
12% | CC(C)C(NS(=O)(=O)c1ccc2c(c1)OCCO2)C(=O)NCCc1ccccn1 (stereo not given)
21% | CC1=CCC2C(=O)N(CCc3c[nH]c4ccccc34)C(=O)C2C1 (stereo not given)
-10% | O=C(COC(=O)c1cc(=O)c2ccccc2o1)Nc1ccc2ccccc2c1
? | O=S(=O)(NN1CCOCC1)c1ccc(Br)cc1
2% | CCc1nc2nc(C)cc(Nc3cc(Cl)ccc3OC)n2n1
-1% | Cn1nnc2cc(NC(=O)NCc3ccc4c(c3)OCO4)ccc21
-13% | O=C(NCCc1ccccc1)c1cccc2c1C(=O)N(C1CCCCC1)C2
-1% | CC1(C)C(=O)Nc2ccccc2N1C(=O)COC(=O)c1cc(S(=O)(=O)N2CCOCC2)ccc1F
-2% | COC(=O)C1(c2ccccc2)NC(c2ccc(O)cc2)C2C(=O)N(c3ccc4c(c3)OCO4)C(=O)C21 (stereo not given)
-9% | O=C(CCN1C(=O)c2cccnc2C1=O)NC1CCCCCC1
2% | Cc1cccc(C)c1NC(=O)Cn1c(=O)c(N2CCCCC2)c(N)n(C)c1=O
-4% | CCOc1cc(/C=N/N=C/c2ccc(O)c(OCC)c2)ccc1O
-4% | O=C(NCCN1Cc2ccccc2C1=O)c1cccs1
-7% | Cc1ccc(S(=O)(=O)N2[C@@H](c3ccc(C(C)(C)C)cc3)C(C(=O)O)=CC[C@H]2c2ccc(C(C)C)cc2)cc1
4% | Cc1cc(C)nc(N2CCC(C(=O)NCc3ccccc3F)CC2)n1
? | Cc1cc(C)c[n+](CC(=O)c2c(C)cc(C)c([N+](=O)[O-])c2C)c1
2% | COc1ccc(-n2nnnc2SCC(=O)Nc2ccccc2N2CCOCC2)cc1OC
3% | Cc1ccccc1NS(=O)(=O)c1ccc(C)c(NS(C)(=O)=O)c1C

# Looked up above:
# `COC(=O)c1ccc2c(=O)n(CCCCCC(=O)O)c(=O)[nH]c2c1` – VDR inh: -27%
# `Cc1cccc(C)c1NC(=O)Cn1c(=O)c(N2CCCCC2)c(N)n(C)c1=O` – VDR inh: 2%

# Next part
VDR inh | mol
0% | O=C(COC(=O)CCC1CCCC1)Nc1ccc(F)cc1Cl
-9% | CCC(=O)Nc1ccc(C(=O)N/N=C/c2cccnc2)cc1
-18% | Cc1ccc(Sc2c([N+](=O)[O-])c(C)nn2C)cc1
-13%&-19%&-17%&-6% | COc1cc2c(cc1OC)-c1cc(=Nc3c(C)cc(C)cc3C)n(C)c(=O)n1CC2
-5% | O=C(CSc1nc(-c2ccccc2)nc2ccc(F)cc12)Nc1cccc(C(=O)O)c1
-11% | O=[N+]([O-])c1ccc(/C=N/Nc2ncc(Br)cn2)cc1
-30% | C=CCSC1=C(C#N)C(c2cc(Br)c(O)c(OC)c2)CC(=O)N1 (stereo not given)
5% | O=C(c1ccco1)N1CCN(S(=O)(=O)c2ccc3c(c2)OCCO3)CC1
-13% | O=C(Cc1c[nH]c2ccccc12)NCc1cccs1
6.3µM* | CCOC(=O)C1=C(Cc2ccc(Cl)cc2)C(=O)c2ccccc2C1=O
7% | O=C(CSc1nc2ccccc2[nH]1)Nc1ccccc1N1CCOCC1
-1% | CS(=O)(=O)N(Cc1nc2sc3c(c2c(=O)[nH]1)CCCC3)C1CCCCC1
-2% | O=C(CN1CCCC1)NC(c1ccccc1)c1ccccc1
15% | CCOc1ccc(N2CC(c3nc4ccccc4n3CCCOc3ccccc3OC)CC2=O)cc1 (stereo not given)
9% | CCCC(=O)OCCn1c(Br)nc2c1c(=O)[nH]c(=O)n2C
9% | CCCCCC(=O)Nc1ccc(C(=O)COC(=O)c2ccccn2)cc1
4% | COc1ccc2[nH]c(=O)c(CN(c3ccc(C)c(C)c3)S(C)(=O)=O)cc2c1
13% | Cc1cccc(CCNC(=O)c2ccc3c(c2)nc2n3CCC(C)C2)c1 (stereo not given)
40µM* | COC(=O)CC1=NN(c2ccc(OC)cc2)C(=O)/C1=C\c1ccc(Cl)cc1
13% | Cc1cc(C)nc(NS(=O)(=O)c2ccc(NC(=O)Nc3ccccc3)cc2)n1
3% | COC(=O)c1ccccc1NC(=O)CSc1nc2ccsc2c(=O)n1CCC(C)C
1% | Cc1cc(C)n(CC(O)COc2ccccc2C)n1 (stereo not given)
0% | CC(C)NC(=O)COC(=O)c1ccc(O)cc1
13% | CCOCc1nnc(NC(=O)CSc2ccc(C)cc2)s1
1% | COc1ccc(S(=O)(=O)NCC(c2ccco2)N2CCOCC2)cc1C (stereo not given)
-4% | COC(=O)c1ccc(Cn2c(=O)cc(C)c3c(C)nn(C)c32)cc1
4% | Cc1ccc(NC(=O)CN2C(=O)c3ccccc3Sc3ccc(C(=O)N4CCCC4)cc32)cc1
5% | CCc1ccc(CNC(=O)c2ccc(NC(=O)N3CCSc4ncccc43)cc2)cc1
? | CCN(CC)c1nc(N)c2c(N)nc(OC)cc2c1C#N
5% | Cc1ccc(S(=O)(=O)Nc2cccc(C(=O)N3CCCC3)c2)cc1F
16% | CCOCCCNC(=O)C(NC(=O)CNC(C)=O)c1ccc(Cl)cc1 (stereo not given)
-12% | Cc1ccsc1CN1CCC(C(=O)NCc2ccccc2Cl)CC1
1% | CNC(=O)c1c(Cl)cnn1-c1ccccc1
16% | O=C(O)CCCCCNC(=O)CSc1nnc(-c2ccco2)n1-c1ccccc1
-14% | CCOC(=O)c1cnc(-n2nc(C)cc2C)nc1NC
-3% | CCN=C1SC(CC(=O)NCCc2ccc(OC)c(OC)c2)C(=O)N1CC (stereo not given)
6%&5%&-8% | N[C@H](CCC(=O)NCC(=O)O)C(=O)O
2% | Cc1c(CC(=O)N2CCC(C(=O)O)CC2)c(=O)oc2cc3c(cc12)CCC1(CCCCC1)O3
-1% | COCCCNC(=O)c1c(NC(=O)c2cc(=O)c3cc(C)c(C)cc3o2)sc2c1CCCC2
5% | CN1CCN(c2ccnc(-c3cccnc3)n2)CC1
-9% | Cc1cccc2c3nc4ccccc4nc3n(CCCN3C(=O)c4ccccc4C3=O)c12
-10% | O=C(NCc1ccc(F)cc1)c1c(O)c2cccc3c2n(c1=O)CCC3
23% | CNC(=O)C1CCN(C(=O)N2CC(C)Oc3ccc(Cl)cc32)CC1 (stereo not given)
-4% | COc1ccc2ccc(Oc3ncccn3)cc2c1
5% | COc1ccc(CNc2ncnc3c2cnn3-c2ccc(Cl)cc2)cc1
-4% | FC(F)(F)c1cccc(CNC2c3ccccc3-c3ccccc32)c1
-1% | O=C(CSc1nc2cc(Cl)ccc2s1)c1ccco1
2% | c1coc(CNc2ncnc3c2[nH]c2ccccc23)c1
9% | Cc1ccc2c(c1)cc(CN(Cc1cccnc1)C(=O)c1ccccc1)c1nnnn12
-7% | COc1ccc2nc(C)cc(N3CCOCC3)c2c1
-7% | O=C(/C=C/c1ccccc1)NC1CCSC1=O (stereo not given)
5% | COc1ccccc1CNCC(=O)Nc1cc(S(=O)(=O)N2CCOCC2)ccc1Cl
-21% | N#Cc1ccc(NC(=O)CSc2n[nH]c(=O)n2C2CC2)cc1
-13% | CC1(CCc2ccccc2)NC(=O)N(CC(=O)Nc2ccc(S(N)(=O)=O)cc2)C1=O (stereo not given)
-19% | OC(CNCc1ccncc1)c1ccccc1 (stereo not given)
11% | Cc1cccc(-n2cc(-c3ccccc3)c3c(N4CCC(C)CC4)ncnc32)c1
2% | O=C(c1ccco1)N1CCN(C(=S)NCc2ccc(F)cc2)CC1
19% | CCOC(=O)c1sc(NC(=O)CCN2CCOCC2)c(C(=O)OCC)c1C
-4% | CC(=O)C1C(c2ccc(Br)cc2)c2c(noc2C)CC1(C)O (stereo not given)
-1% | Clc1ccc(COn2c(-c3ccc(Cl)cc3)nc3ccccc32)cc1

# Further structures follow:
VDR inh | mol
-11% | CC(C)[C@H](NC(=O)c1ccccc1)C(=O)OCc1nc2scc(-c3ccccc3)c2c(=O)[nH]1
-13% | COCCN(C(=S)Nc1cccc(C)c1C)C(C)c1ccco1 (stereo not given)
-6% | COc1ccccc1Nc1nc(N)nc(CSc2nncn2C)n1
-10% | O=C(c1ccccc1)c1cccc(NC(=O)c2ccco2)c1
4% | Cc1cccc(N(C)S(=O)(=O)c2cc(-c3cnc(C4CC4)o3)ccc2C)c1
-7% | Nc1ccccc1Nc1cc(-c2ccccc2)nn1-c1cccc(Cl)c1
-1% | COc1ccc(S(=O)(=O)N2CCN(C)CC2)cc1
-1% | CC(C)(C)C(=O)Cn1c(=O)n(-c2ccc(F)cc2F)c(=O)c2sccc21
-5% | CCCc1ccc(Oc2cc(NN3CCCCC3)c([N+](=O)[O-])cc2[N+](=O)[O-])cc1
1% | Cc1ccc(NC(=O)CS(=O)CC(=O)N2CCN(C3CCCC3)CC2)cc1 (stereo not given)
11% | CCCC(=O)C1=C(O)C(C(=O)OC)C(C)(C)CC1=Nc1ccc(N)cc1 (stereo not given)
20% | CN(C(=O)c1nc(-c2ccccc2)n(-c2ccccc2)n1)C1CCS(=O)(=O)C1 (stereo not given)
-3% | COc1ccccc1CNc1ncnc2c1c(-c1ccccc1)cn2-c1cccc(C)c1
0% | COc1ccc(CCNC(=O)c2c(C)nn(-c3ccccc3)c2Cl)cc1OC
-9% | Cc1ccc(CCNC(=O)c2ccc3c(c2)N(Cc2cc(C)ccc2C)C(=O)c2ccccc2S3=O)cc1 (stereo not given)
10% | C=CCc1cccc2cc(C(=O)N(C)C)c(=O)oc12
2% | O=C(COc1ccc([N+](=O)[O-])cc1)Nc1ccc2c(c1)CCC2
0% | Cc1ccc(C2Nc3ccccc3C(=O)N2Cc2ccco2)cc1 (stereo not given)
12% | Cc1cc(C)cc(N2CCCn3c2nc2c3c(=O)n(CC(=O)OCc3ccccc3)c(=O)n2C)c1
-1% | CCOc1cc(C(=O)O/N=C(\N)c2ccc([N+](=O)[O-])cc2)cc(OCC)c1OCC
10% | Cc1c(Cl)cccc1NC(=O)C1COc2ccccc2O1 (stereo not given)
11% | O=C(c1cn(-c2ccccc2)nc1-c1cccc(Br)c1)N1CCOCC1
-7% | CSc1ccccc1NC(=O)Cn1ccsc1=N
2% | COCc1ccc(CN2CCCCC2C(=O)Nc2ccc(Oc3ccccc3)nc2)o1 (stereo not given)
-16% | CCN1CCN(C(c2ccccc2)c2nnnn2Cc2ccc3c(c2)OCO3)CC1 (stereo not given)
9% | Cc1ccc(OCCSCc2nc3ccccc3[nH]2)cc1
2%&-1%&5%&0% | O=c1[nH]c(=O)n([C@H]2C[C@H](O)[C@@H](CO)O2)cc1Br
-10% | Cc1onc(-c2c(F)cccc2Cl)c1C(=O)NCCO
-4% | CN(C)c1ccc(O)c2c1CC1CC3[C@@H](N(C)C)C(=O)C(C(N)=O)=C(O)[C@]3(O)C(=O)C1=C2O (stereo not given in full)
-17% | O=C(NCc1ccccc1F)C1CCCN(C(=O)NC2CCCCC2)C1 (stereo not given)

# Brought forward from above: seven entries, followed by the next part.
VDR inh | mol
2% | COCc1ccc(CN2CCCCC2C(=O)Nc2ccc(Oc3ccccc3)nc2)o1 (stereo not given)
-16% | CCN1CCN(C(c2ccccc2)c2nnnn2Cc2ccc3c(c2)OCO3)CC1 (stereo not given)
9% | Cc1ccc(OCCSCc2nc3ccccc3[nH]2)cc1
2%&-1%&5%&0% | O=c1[nH]c(=O)n([C@H]2C[C@H](O)[C@@H](CO)O2)cc1Br
-10% | Cc1onc(-c2c(F)cccc2Cl)c1C(=O)NCCO
-4% | CN(C)c1ccc(O)c2c1CC1CC3[C@@H](N(C)C)C(=O)C(C(N)=O)=C(O)[C@]3(O)C(=O)C1=C2O (stereo not given in full)
-17% | O=C(NCc1ccccc1F)C1CCCN(C(=O)NC2CCCCC2)C1 (stereo not given)
-12% | Cc1nnc(SCCn2c(N(C)Cc3ccccc3)nc3c2c(=O)[nH]c(=O)n3C)s1
4% | Cc1cc(NC(=O)CCc2ccc(C)o2)no1
-16% | COc1ccc(/C=C/C(=O)NC(=S)N2CCN(c3ccccn3)CC2)cc1
-12% | CCOc1ccc(S(=O)(=O)N2CCCC(C(=O)NCc3cccnc3)C2)cc1 (stereo not given)
2% | Cc1ccccc1-c1nc(CS(=O)(=O)CC(=O)N2CCN(c3ccccc3)CC2)c(C)o1
4% | CN(Cc1cccs1)C(=O)COc1cccc(-n2cnnn2)c1
4% | CCOc1ccc(NC(=O)NNC(=O)C(C)Oc2ccccc2OC)cc1 (stereo not given)
2% | CN1CCN(C(=O)c2cccc(COc3cc(Cl)ccc3Cl)c2)CC1
-14% | COc1ccc(Oc2ncc3nc(C)c(=O)n(-c4ccccc4)c3n2)cc1
3% | Cc1cccc(NC(=O)CSc2nc3c(sc4ccccc43)c(=O)n2CCCC(=O)NC2CCCC2)c1

# Some of the entries above in a different format:
Structure,VDR inh
Cc1ccccc1-c1nc(CS(=O)(=O)CC(=O)N2CCN(c3ccccc3)CC2)c(C)o1,2%
CN(Cc1cccs1)C(=O)COc1cccc(-n2cnnn2)c1,4%
CCOc1ccc(NC(=O)NNC(=O)C(C)Oc2ccccc2OC)cc1 (stereo not given),4%

# Assay outcomes deposited in PubChem by National Center for Advancing Translational Sciences (NCATS).
